HCMV NEC inh = cytomegalovirus nuclear egress complex inhibition. HTRF UL50-UL53 interaction, normalized percent inhibition. inhibition, % (no concentration beside the values). actives 0.15% (n = 190,000). AID 1918969;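 active means both replicates at 50% or more, plus weaker picks with an unusually low signal ratio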;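 further: stock transfer was 100 nL into about 20 µL; 0% = negative control wells and 100% = wells with untagged competitor protein; inactives centre near -12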
Sa growth inh = blocks Staphylococcus aureus growth; S. aureus RN4220 growth, OD600, 20 h, 42 °C; active compounds read low; relative growth, % (concentration not given with the values); actives 0.53% (n = 170,000); AID 720641;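 active means growth at 42 °C up to 50% and 20 or more points under that at 30 °C, or under 10% at both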;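 further: 300 nL library stock went into each well; scaled to the means of positive and negative controls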
GIV Gai3 FP = blocks GIV peptide binding to rat Galpha-i3. Galpha-i3/FITC-GIV peptide fluorescence polarization, 90 min; active compounds read low; scaled: aluminum fluoride 0%, vehicle 100%. percent of control (FP), % (test concentration not listed). actives 0.42% (n = 210,000). AID 1224905;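 active means replicate mean at 85% of control or lower, very high polarization wells dropped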;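 further: lower values mean more displacement of the GIV peptide from Galpha-i3; wells of about 15 µL received 100 nL stock; the first replicate is given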
Target sequence (P08753 whole entry, looked up): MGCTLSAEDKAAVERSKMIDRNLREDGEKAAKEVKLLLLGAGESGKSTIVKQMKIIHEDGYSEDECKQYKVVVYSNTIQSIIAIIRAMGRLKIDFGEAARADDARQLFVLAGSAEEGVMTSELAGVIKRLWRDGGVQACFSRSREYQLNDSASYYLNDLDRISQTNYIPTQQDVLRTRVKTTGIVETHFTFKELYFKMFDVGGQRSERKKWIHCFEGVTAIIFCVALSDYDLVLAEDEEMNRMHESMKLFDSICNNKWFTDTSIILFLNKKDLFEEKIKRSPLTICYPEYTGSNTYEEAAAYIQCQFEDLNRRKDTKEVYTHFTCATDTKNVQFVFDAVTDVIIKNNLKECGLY
Sa growth inh second temp = second read-out of Sa growth inh, no call of its own (marks repeat the call); relative growth, %; measured here: growth at 30 °C;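 optical density after 20 h as mean of two plates; 100% = untreated growth and lower means inhibition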
Active calls of the source: *; · = no result given; & = joins results of further samples.

nr | mol | HCMV NEC inh | Sa growth inh | Sa growth inh second temp | GIV Gai3 FP
1 | CC1CCC(NC(=O)C2CCCN(C(=O)c3cc4sccc4n3C)C2)CC1 (stereo unspecified) | -17 | 99 | 91 | 98
2 | O=C1c2ccccc2-c2nn(CC(=O)N3CCOCC3)c3cccc1c23 | -68 | 89 | 103 | ·
3 | CC(C)(C)n1ncc(O)c(Cl)c1=O | -16 | 101 | 103 | 98
4 | COc1ccc(N2CCN(C(=O)CCC(=O)c3ccccc3)CC2)cc1 | · | 110 | 96 | 104
5 | CC(C)OCCCNc1ncnc2sc3c(c12)CCCC3 | -2 | 95 | 80 | 101
6 | CC(C)Oc1ccc(CNC(=O)c2ccc(NC(=O)N3CC(C)Sc4ccccc43)cc2)cc1 (stereo unspecified) | -29 | 94 | 84 | 104
7 | CCCCC(CC)n1[nH]c(=O)cc1N (stereo unspecified) | -10 | 97 | 88 | 107
8 | Cc1cccc(Cn2c(SCc3ccc(C(=O)NC4CCCCC4)cc3)nc3ccncc32)c1 | -1 | 107 | 89 | 97
9 | CCn1cc2nc(SCC(=O)Nc3ccc(OC)c(OC)c3)n(Cc3ccc(Cl)cc3)c(=O)c2n1 | -20 | 102 | 88 | 101
10 | C=CCn1c(=S)sc2c(=O)n(Cc3ccc(C#N)cc3)cnc21 | -17 | 89 | 86 | ·

The list continues.
nr | mol | HCMV NEC inh | Sa growth inh | Sa growth inh second temp | GIV Gai3 FP
11 | CCS(=O)(=O)c1ccc(-c2cccc(NC(=O)c3ccc(Br)o3)c2)nn1 | -47 | 80 | 93 | 104
12 | CC(C(=O)Nc1ccc(S(=O)(=O)N2CCCCC2)cc1)N(C)Cc1nc2ccccc2c(=O)[nH]1 (stereo unspecified) | -4 | 108 | 105 | ·
13 | O=C(c1cnc2n(c1=O)CCS2)N(c1ccccc1)C1CCCCC1 | · | 109 | 87 | 99
14 | CCN(N)C(=S)Nc1ccccc1 | -25 | 98 | 91 | ·
15 | CC(C(=O)N1CCN(c2ccccn2)CC1)n1c(=O)c(C(F)(F)F)nc2ccccc21 (stereo unspecified) | -17 | · | · | 99
16 | CC1CCc2c(sc3ncnc(Oc4ccc(NC(=O)c5ccco5)cc4)c23)C1 (stereo unspecified) | 3 | 116 | 99 | ·
17 | Cc1ccn2c(c1)nc(=O)c1cc(S(=O)(=O)N3CCCCC3)c(Cl)cc12 | -28 | 108 | 85 | 105
18 | Cc1cccc(N(C)C(=O)Cc2c(C(=O)O)[nH]c3ccccc23)c1 | 15 | 100 | 85 | 105
19 | O=C(c1ccc(N2CCc3ccccc3C2)nn1)N1CCc2ccccc21 | -26 | · | · | 100
20 | O=C(OCc1cc(=O)n2nc(C3CC3)sc2n1)c1ccccc1Cl | · | 102 | 90 | 100

New compounds follow.
nr | mol | HCMV NEC inh | Sa growth inh | Sa growth inh second temp | GIV Gai3 FP
21 | CCN(CC)CCOc1ccc(Cl)cc1C | -10 | 105 | 105 | 104
22 | Cc1ccc(CC(=O)Nc2c(C(=O)N3CCN(c4ccccc4F)CC3)oc3ccccc23)cc1 | -2 | 57 | 42 | 102
23 | CCCOc1cccc(CN2CCCCC2c2cccnc2)c1 (stereo unspecified) | -22 | 87 | 73 | 106
24 | COC(OC)c1cc(=O)[nH]c(SCc2c(Cl)cccc2Cl)n1 | -6 | 103 | 92 | 98
25 | CCC(=O)Nc1ccc2c(c1)nc1n2CCN(CCOC)C1 | -23 | 102 | 77 | 105
26 | O=C(CSc1nc2ccccc2c(=O)n1-c1ccc(Cl)c(Cl)c1)N1CCOCC1 | -28 | 96 | 80 | 107
27 | Cc1ccc(Cn2ccnc2SCC(=O)NC2CCCC2)cc1 | · | 110 | 83 | 100
28 | Cc1noc(N)c1-c1nc(-c2cccc(C(F)(F)F)c2)cs1 | 4 | 107 | 60 | 101
29 | CC12CCC(C(=O)O)(OC1=O)C2(C)C (stereo unspecified) | -24 | 100 | 92 | 108
30 | CC1=NN(C(=O)c2ccc(Br)cc2)C(O)(C(F)(F)F)C1 (stereo unspecified) | -13 | · | · | 105

(further entries)
nr | mol | HCMV NEC inh | Sa growth inh | Sa growth inh second temp | GIV Gai3 FP
31 | CCS(=O)(=O)c1ccc(OCc2cc(=O)n3oc(C)cc3n2)c(NC(=O)CCC2CCCC2)c1 | -14 | · | · | 99
32 | CC(C)CN1C(=O)c2ccc(-c3nc4ccccc4c(=O)o3)cc2C1=O | -13 | 101 | 89 | 99
33 | Cc1ccc(CNC(=O)c2ccc3c(=O)nc4c(-c5ccccc5)n[nH]n4c3c2)cc1 | -7 | · | · | 111
34 | Cc1cccc(-c2noc(COc3ccccc3)n2)c1 | · | 73 | 93 | 100
35 | Cc1nc(S(=O)(=O)N2CCN(c3ccc(Cl)cc3)CC2)cn1C | · | 88 | 88 | 92
36 | CC(C)Cc1cc(-c2nn3c(-c4ccccc4Cl)nnc3s2)n[nH]1 | 1 | · | · | 110
37 | CC(C)(C)C1CCc2c(sc(NC(=O)CCC(=O)O)c2C(N)=O)C1 (stereo unspecified) | -2 | 74 | 88 | 107
38 | CCc1ccc2occ(CC(=O)Nc3nnc(C)s3)c2c1 | -3 | 110 | 90 | 109
39 | CCN1CCN(CCNC(=O)c2ccc(NC(=O)N3CCSc4nc(C)cc(C)c43)cc2)CC1 | 3 | · | · | 100
40 | CN(C)Cn1c(O)c(N=NC(=O)Sc2nc3ccccc3s2)c2ccccc21 | -24 | 97 | 61 | ·

The list continues:
nr | mol | HCMV NEC inh | Sa growth inh | Sa growth inh second temp | GIV Gai3 FP
41 | O=C(O)/C=C1\SC(=O)N(c2ccccc2)C1=O | -3 | 85 | 73 | 93
42 | CC(CNc1nc2ccccc2c2nc(-c3ccccc3)nn12)c1ccccc1 (stereo unspecified) | -2 | 92 | 101 | 107
43 | CNC(=O)Cc1ccc(-n2c(=O)c3ccccc3n(CC(=O)NC3CCCCC3)c2=O)cc1 | -7 | · | · | 105
44 | O=C1c2[nH]nc(-c3ccccc3O)c2C(c2ccccc2F)N1Cc1ccncc1 (stereo unspecified) | -30 | 120 | 92 | 105
45 | CCOCc1cc(CN2CCN(c3cccc(C(F)(F)F)c3)CC2)c(O)c2ncccc12 | -8 | 97 | 97 | 98
46 | Cc1nc2cc(NC(=O)Nc3ccccc3Cl)ccc2n1C | -9 | 112 | 95 | 103
47 | CCOC(=O)c1cc(-c2ccccc2)n(CCC(=O)Nc2ccc(C)cc2Cl)c1C | · | 113 | 100 | 102
48 | O=C(COc1ccc(-c2nnco2)cc1)N1CCOCC1 | -8 | 95 | 95 | ·
49 | COc1ccc(C(=O)N2c3ccccc3C(C)(c3ccc(Cl)cc3)CC2(C)C)cc1 (stereo unspecified) | -26 | 90 | 70 | 104
50 | CCOC(=O)C1CCN(Cn2nc(C3CC3)oc2=S)CC1 | -20 | 94 | 96 | ·

Next compounds:
nr | mol | HCMV NEC inh | Sa growth inh | Sa growth inh second temp | GIV Gai3 FP
51 | COc1ccc(NC(=O)CCS(=O)(=O)c2cc(-c3cc(C)no3)ccc2C)cc1OC | -11 | · | · | 104
52 | COc1ccc(OC)c(C2CC(=O)Nc3c2c(=O)n(C)c2ncnn32)c1 (stereo unspecified) | 16 | 96 | 96 | 107
53 | COc1ccc(C)cc1NC(=O)c1sc2nc(C)nc(N3CCOCC3)c2c1C | -21 | · | · | 104
54 | COCC(C)NC(=O)c1cc(-c2cccs2)on1 (stereo unspecified) | · | 89 | 86 | 106
55 | CCC(=O)N1CCc2cc(S(=O)(=O)NC(Cc3ccccc3)C(=O)NCc3cccc(OC)c3)ccc21 (stereo unspecified) | -26 | 98 | 70 | 104
56 | CCn1c(=N)c(C(=O)NC2CCCCC2)cc2c(=O)n3cccc(C)c3nc21 | -38 | 89 | 108 | 107
57 | COc1ccc(NC(=O)CC2NC3CCCCC3NC2=O)cc1Cl (stereo unspecified) | 6 | 116 | 98 | ·
58 | CCC1S/C(=N\N=C\c2ccc(O)c(OC)c2)NC1=O (stereo unspecified) | 3 | 91 | 107 | ·
59 | COCCNC(=O)Cn1c(=O)n(Cc2ccc(C(=O)NCCc3ccc(OC)c(OC)c3)cc2)c(=O)c2ccccc21 | 17 | 93 | 100 | 100
60 | CN(Cc1nc(-c2ccccc2)no1)C(=O)C(C)(C)C | -20 | 112 | 73 | 106

Ordered by SMILES length (highest first): 19 of the compounds above
nr | mol | HCMV NEC inh | Sa growth inh | Sa growth inh second temp | GIV Gai3 FP
59 | COCCNC(=O)Cn1c(=O)n(Cc2ccc(C(=O)NCCc3ccc(OC)c(OC)c3)cc2)c(=O)c2ccccc21 | 17 | 93 | 100 | 100
55 | CCC(=O)N1CCc2cc(S(=O)(=O)NC(Cc3ccccc3)C(=O)NCc3cccc(OC)c3)ccc21 (stereo unspecified) | -26 | 98 | 70 | 104
43 | CNC(=O)Cc1ccc(-n2c(=O)c3ccccc3n(CC(=O)NC3CCCCC3)c2=O)cc1 | -7 | · | · | 105
33 | Cc1ccc(CNC(=O)c2ccc3c(=O)nc4c(-c5ccccc5)n[nH]n4c3c2)cc1 | -7 | · | · | 111
51 | COc1ccc(NC(=O)CCS(=O)(=O)c2cc(-c3cc(C)no3)ccc2C)cc1OC | -11 | · | · | 104
45 | CCOCc1cc(CN2CCN(c3cccc(C(F)(F)F)c3)CC2)c(O)c2ncccc12 | -8 | 97 | 97 | 98
47 | CCOC(=O)c1cc(-c2ccccc2)n(CCC(=O)Nc2ccc(C)cc2Cl)c1C | · | 113 | 100 | 102
44 | O=C1c2[nH]nc(-c3ccccc3O)c2C(c2ccccc2F)N1Cc1ccncc1 (stereo unspecified) | -30 | 120 | 92 | 105
52 | COc1ccc(OC)c(C2CC(=O)Nc3c2c(=O)n(C)c2ncnn32)c1 (stereo unspecified) | 16 | 96 | 96 | 107
37 | CC(C)(C)C1CCc2c(sc(NC(=O)CCC(=O)O)c2C(N)=O)C1 (stereo unspecified) | -2 | 74 | 88 | 107
42 | CC(CNc1nc2ccccc2c2nc(-c3ccccc3)nn12)c1ccccc1 (stereo unspecified) | -2 | 92 | 101 | 107
35 | Cc1nc(S(=O)(=O)N2CCN(c3ccc(Cl)cc3)CC2)cn1C | · | 88 | 88 | 92
57 | COc1ccc(NC(=O)CC2NC3CCCCC3NC2=O)cc1Cl (stereo unspecified) | 6 | 116 | 98 | ·
60 | CN(Cc1nc(-c2ccccc2)no1)C(=O)C(C)(C)C | -20 | 112 | 73 | 106
50 | CCOC(=O)C1CCN(Cn2nc(C3CC3)oc2=S)CC1 | -20 | 94 | 96 | ·
38 | CCc1ccc2occ(CC(=O)Nc3nnc(C)s3)c2c1 | -3 | 110 | 90 | 109
41 | O=C(O)/C=C1\SC(=O)N(c2ccccc2)C1=O | -3 | 85 | 73 | 93
34 | Cc1cccc(-c2noc(COc3ccccc3)n2)c1 | · | 73 | 93 | 100
54 | COCC(C)NC(=O)c1cc(-c2cccs2)on1 (stereo unspecified) | · | 89 | 86 | 106

Following part
nr | mol | HCMV NEC inh | Sa growth inh | Sa growth inh second temp | GIV Gai3 FP
61 | O=C(CN1C(=O)c2ccc(Br)cc2C1=O)NCC1CCCO1 (stereo unspecified) | 1 | 106 | 107 | 107
62 | O=C(COC(=O)[C@@H]1CCCN1S(=O)(=O)c1ccc(Cl)cc1)Nc1ccccc1 | -24 | 101 | 93 | ·
63 | C=CCNC(=O)c1c(N)n(C2CCCCC2)c2nc3ccccc3nc12 | -4 | 89 | 99 | ·
64 | Cc1ccccc1NC(=O)N1CCc2cc(S(=O)(=O)N3CCC(C)CC3)ccc21 | -9 | 108 | 90 | 102
65 | CCOc1cc(/C=N/O)cc(I)c1O | -10 | 97 | 61 | 95
66 | COC(=O)/C=C1/NCC(OC(=O)c2ccc(C(C)(C)C)cc2)CNC1=O (stereo unspecified) | -26 | 113 | 91 | 103
67 | Cc1csc2nc(-c3ccc(NS(=O)(=O)c4cc(F)ccc4F)cc3)cn12 | · | 88 | 93 | 103
68 | CC(C)CNC(=O)Cn1cnc2c(nc3n2CCCCC3)c1=O | -18 | · | · | 101
69 | COc1ccc(C(O)(CCN2CCOCC2)c2ccccc2)cc1 (stereo unspecified) | -11 | 105 | 79 | 99
70 | Cc1c(NC(=O)c2cc([N+](=O)[O-])ccc2N2CCOCC2)cccc1-c1nc2ccccc2o1 | -14 | 86 | 87 | 107

Following part
nr | mol | HCMV NEC inh | Sa growth inh | Sa growth inh second temp | GIV Gai3 FP
71 | Cc1nc2ccn(Cc3cccnc3)c(=O)c2cc1C(=O)NCc1ccc(Cl)cc1 | · | 89 | 89 | 99
72 | O=C(CSc1nnnn1-c1ccccc1)NC(=O)Cc1ccccc1 | -22 | 103 | 93 | ·
73 | Cc1cc(-c2ccc(S(=O)(=O)N3CCCC3)cc2)nc2ccccc12 | -34 | 102 | 81 | ·
74 | CC(C)CCNC(=O)Cn1cccc1C(=O)c1ccccc1 | -15 | 90 | 85 | 105
75 | CCCC(CCC)C(=O)NC1CC(=O)N(c2ccc3c(c2)OCCO3)C1 (stereo unspecified) | · | 107 | 94 | 102&100
76 | O=C(Nc1ccc(N2CCOCC2)c2nonc12)c1cc(-c2cccnc2)nc2ccc(Cl)cc12 | 0 | 115 | 72 | 101
